Mtb hypoxia inh – inhibitors of hypoxia-regulated fluorescent reporter in Mycobacterium tuberculosis; fluorescence inhibition, % (concentration not given with the values); 0.1% of 300,000 active; M. tuberculosis hypoxia-regulated fluorescent reporter, fluorescence;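 active = 35 to 45% if threefold the growth effect, above 45% if 1.5-fold the growth effect; inactive = the rest, general growth blockers included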;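 also: wells of about 50 µL received 100 nL stock; 0% = vehicle wells and 100% = reference inhibitor wells; whole bacteria with a GFP reporter of the hypoxia response; strong numbers were not always called active; many hits fall short of the cut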
Sa RN4220 lethal – S. aureus RN4220 growth inhibition | 0.33% of 330,000 active | inhibition, % (concentration not given with the values) | AID 1259311 | OD600, 16 h;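 active = z-score of -3 or lower and OD600 up to 0.18 on both plates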;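 also: plate controls were untreated cells for no effect and reference antibiotic for full effect; stock transfer was 100 nL into about 80 µL; one replicate is shown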
ugtP null kill – growth inhibition of S. aureus ugtP deletion strain. S. aureus RN4220 ugtP deletion, OD600 growth, 16 h; some inactives read as strong as hits. growth inhibition, % (no concentration beside the values). 0.54% of 330,000 active;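 active = z-score under -3 and OD600 up to 0.15 on both plates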;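 also: plate controls were untreated wells for no effect and antibiotic for full effect; wells of about 80 µL received 100 nL stock; the first replicate is given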
Autofluor counter – flagged as autofluorescent in microsphere protease counterscreen | compound autofluorescence counterscreen, microsphere flow cytometry; active compounds read high | fluorescence intensity (test concentration not listed) | 3.1% of 360,000 active;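 active = at least 3 SD above the mean of all compounds, about 16000 in these data; inconclusive = too few beads counted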;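 also: 100 nL of 1 mM stock went into each well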
PrP UTR inh – inhibition of PrP 5' UTR reporter expression. cell-based PrP 5' UTR mRNA reporter, plate reader. inhibition, % (no concentration beside the values). 0.35% of 340,000 active;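 active = every replicate at 50% or more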;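 also: 0 = median of the neutral control wells; tested in H4 reporter cells; numbers are from one replicate; inactives centre near -14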
BJeLR lethal – BJeLR cell viability loss; BJeLR (HRASV12) viability, CellTiter-Glo ATP luminescence, 48 h; reference of the scale not given here; inhibition, % (test concentration not listed); 0.17% of 300,000 active;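 active = replicate mean above 50%; inconclusive = above 50% but judged a plate artefact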;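 also: 50 nL library stock added to about 25 µL; numbers are from one replicate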
Mtb hypoxia inh growth – further read-out of Mtb hypoxia inh, marked with its call; growth inhibition, %; measured here: M. tuberculosis growth (absorbance);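 0% = vehicle and 100% = reference antibiotic; read after six days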
* hit, by the source's call; ? = inconclusive; . = no result given; & = joins results of further samples. Outcome played no part in choosing rows; any-hit rate near 4%.

SMILES,Mtb hypoxia inh,Mtb hypoxia inh growth,Sa RN4220 lethal,ugtP null kill,Autofluor counter,PrP UTR inh,BJeLR lethal
Cc1nnc(NN=Cc2cc([N+](=O)[O-])c(N3CCC(C)CC3)cc2N2CCC(C)CC2)n1N,-1,6,0.4,-15,.,.,.
Cc1oc(-c2cccs2)nc1CSCC(=O)NC1CC1,9,9,3.9,-2,4429,-7,-8
CSc1ccccc1C(=O)NCC(c1ccco1)N1CCCCC1 (centres undefined),7,3,3.4,9,4134,-26,-5
S=C(NCC(c1cccnc1)N1CCOCC1)NC1CCCCC1 (centres undefined),-5,2,1.8,19,2138,-12,3
O=C(OCc1ccc([N+](=O)[O-])cc1)C1CC(=O)N(Cc2ccccc2)C1 (centres undefined),3,5,4.8,4,4029,-11,.
Cc1cc(C(=O)Cn2ncc(Cl)c(Cl)c2=O)c(C)n1CC(F)(F)F,.,.,5.9,-6,2187,-19,4
Cc1cc(C)cc(NC(=O)c2cc(S(=O)(=O)NCc3ccco3)ccc2F)c1,3,1,2.6,-8,21467*,-24,1
COc1ccc(C)cc1S(=O)(=O)N1CCC(C(=O)NC2CCCC2)CC1,-8,-8,3.7,4,4233,-15,2
C1CCCN(C2CCNCC2)CC1,-3,14,-0.6,0,3907,-24,-9
Cc1ccccc1NC(=O)c1ccc(F)c(S(=O)(=O)NCC2CCCO2)c1 (centres undefined),7,4,2.8,12,5117,-20,-7
Cc1nn(-c2ccccc2)c(Cl)c1C(=O)OCC(=O)NCCc1ccccc1,.,.,.,.,6524,-20,3
O=C(NN=Cc1ccc(F)cc1)C1CC1,14,15,1.4,-1,4039,-13,.
Cc1cccnc1NC(=O)/C=C/c1ccc2c(c1)OCO2,1,3,3.5,7,8233,-94,3
O=C(Nc1nc(-c2ccccn2)cs1)c1ccc(Cl)s1,.,.,51,58,5438,15,-4
COCCn1c(SCc2csc(-c3ccccc3)n2)nc2ccccc21,6,9,2.4,3,22786*,-4,4
Cc1ccc(NS(=O)(=O)c2cccc3cccnc23)c(Br)c1,17,-3,0.1,1,4349,-12,-5
CN1CCN(C(=O)Nc2cccc3ccccc23)CC1,2,3,0.7,4,18834*,-26,.
CC(/C=N/NC(=O)c1nn(C)c(C)c1Br)=C\c1ccccc1,.,.,.,.,8478,-79,12
CN(Cc1ccccc1)C(=O)c1[nH]cnc1C(=O)Nc1ccon1,4,7,4.8,2,3741,-10,.
CC(=O)Nc1sc2c(c1C(c1ccccn1)N1CCCC1)CCCC2 (centres undefined),9,0,-2.0,7,3971,-14,19
Cc1cc2c(c(=O)o1)C(CCC1CCCCC1)C(C#N)=C(N)O2 (centres undefined),8,3,2.1,1,4593,.,0
Cn1c(=O)c2c(nc(NCCCN3CCOCC3)n2Cc2ccc(Cl)cc2)n(C)c1=O,8,9,9.1,-3,?,-13,1
CSc1ccccc1NC(=O)CN(C)C(=O)Cc1c[nH]c2ccccc12,.,.,.,.,?,1,-6
C/C(=N/OC(=O)c1ccccc1Br)c1ccc(C)cc1,.,.,.,.,3301,-37,2
Cc1nn(CCCC(=O)NCc2ccccc2)c(C)c1[N+](=O)[O-],1,1,0.1,10,2111,-12,-4
CCNC(=S)NN(c1ccccc1)c1ccccc1,.,.,-0.3,-2,4314,-10,-4
O=C(Nc1ccncc1)C1CC(=O)N(Cc2ccccc2)C1 (centres undefined),0,9,0.3,-1,5629,-25,.
COCCCNC(=O)C[C@H]1C[C@H](C(=O)N2CCCCC2)[C@@]2(CCc3ccccc3)c3[nH]c4cc(CCC(=O)N(C)C)ccc4c3CCN2C1=O,-5,3,5.5,13,4006,3,.
Cc1cc(NC(=O)CCN2CCC(C)CC2)ccc1Br,12,5,0.2,5,3124,-12,7
COc1ccc(C)cc1NC(=O)C(=O)NNC(=O)COc1ccc(Cl)cc1,-3,-2,8.1,17,4524,-24,-4
Cc1cc(NC(=O)c2cc(-c3ccc(C)s3)nc3ccccc23)no1,6,1,-2.6,10,4304,-12,12
O=C(C1CCCCC1)N1CCN=C1SCc1cccc([N+](=O)[O-])c1,0,4,6.1,7,3333,-16,13
CS(=O)(=O)c1ccc2nc(NC(=O)c3ccccc3)sc2c1,14,18,4.3,9,3627,-64,10
O=C(c1cc(-c2ccc(Br)cc2)n[nH]1)N1CCN(C(=O)c2ccccc2Br)CC1,6,0,0.6,3,4658,-15,4
COc1cc(C2CC(=O)c3c([nH]c(C(=O)OCCOC(C)C)c3C)C2)cc(OC)c1OC (centres undefined),.,.,2.6,3,4355,-9,8
O=C1Nc2ccccc2C1(O)Cc1ccncc1 (centres undefined),.,.,1.0,4,2424,-14,-2

Reformatted field by field: entries from further up.
COCCCNC(=O)C[C@H]1C[C@H](C(=O)N2CCCCC2)[C@@]2(CCc3ccccc3)c3[nH]c4cc(CCC(=O)N(C)C)ccc4c3CCN2C1=O
  Mtb hypoxia inh: -5
  Mtb hypoxia inh growth: 3
  Sa RN4220 lethal: 5.5
  ugtP null kill: 13
  Autofluor counter: 4006
  PrP UTR inh: 3
  BJeLR lethal: .
Cc1cc(NC(=O)c2cc(-c3ccc(C)s3)nc3ccccc23)no1
  Mtb hypoxia inh: 6
  Mtb hypoxia inh growth: 1
  Sa RN4220 lethal: -2.6
  ugtP null kill: 10
  Autofluor counter: 4304
  PrP UTR inh: -12
  BJeLR lethal: 12
O=C(C1CCCCC1)N1CCN=C1SCc1cccc([N+](=O)[O-])c1
  Mtb hypoxia inh: 0
  Mtb hypoxia inh growth: 4
  Sa RN4220 lethal: 6.1
  ugtP null kill: 7
  Autofluor counter: 3333
  PrP UTR inh: -16
  BJeLR lethal: 13
CCNC(=S)NN(c1ccccc1)c1ccccc1
  Mtb hypoxia inh: .
  Mtb hypoxia inh growth: .
  Sa RN4220 lethal: -0.3
  ugtP null kill: -2
  Autofluor counter: 4314
  PrP UTR inh: -10
  BJeLR lethal: -4

(listing goes on)
SMILES,Mtb hypoxia inh,Mtb hypoxia inh growth,Sa RN4220 lethal,ugtP null kill,Autofluor counter,PrP UTR inh,BJeLR lethal
CC(=O)c1ccc(NS(=O)(=O)Cc2ccc(Cl)cc2)cc1,1,4,3.3,2,10022,1,.
O=S(=O)(c1ccc(=S)[nH]c1)N1CCOCC1,3,6,-0.3,0,5102,4,.
CCOC(=O)c1sc(N(Cc2ccccc2)C(=O)CSc2ncn[nH]2)nc1C,.,.,2.3,-6,2615,-4,0
O=C1C2CCCN2C(c2ccc(F)cc2)N1c1nccs1 (centres undefined),5,-4,1.6,2,3757,-7,-9
Cc1ccc(OCC(=O)Nn2c(C)nc3ccccc3c2=O)c(C(C)C)c1,9,20,25,3,13030,-33,7
O=C(Nc1ccc(Cl)cc1)Nc1nnc(SCc2ccc(Cl)cc2)s1,.,.,.,.,2668,-27,4
CCOC(=O)c1sc(=S)n(-c2ccccc2)c1N(C(C)=O)C(C)=O,5,1,7.5,5,4570,-18,1
COc1cc(OC)c(C(=O)OC(C)C(=O)Nc2cc(C(F)(F)F)ccc2Cl)cc1OC (centres undefined),-1,-2,3.0,3,7671,-15,4
CCN1CCN(c2nc3c(c(=O)[nH]c(=O)n3C)n2CCCc2ccccc2)CC1,9,12,5.0,10,4758,-18,5
Cn1ccnc1C(=O)c1ccccc1Cl,8,2,-0.5,-2,5081,-10,-2
Cc1sc(NC(=O)CN(C(=O)c2ccccc2F)C2CCCC2)c(C(N)=O)c1C,10,-2,2.9,11,5531,-18,-3
Cc1ccccc1OCC(=O)NN=C1CC(=O)CC(C)(C)C1,4,3,1.4,4,.,.,.

(further entries)
Sequence of screens: Mtb hypoxia inh | Mtb hypoxia inh growth | Sa RN4220 lethal | ugtP null kill | Autofluor counter | PrP UTR inh | BJeLR lethal
COc1ccc(-n2nc(C(=O)NCC(=O)N3CCN(c4ccc(F)cc4)CC3)c3ccccc3c2=O)c(OC)c1
  . | . | . | . | 6136 | -25 | -11
COc1cc(OC)c(OC)cc1/C=C1\Oc2cc(OCC(=O)N3Cc4ccccc4C[C@H]3C(=O)O)ccc2C1=O
  . | . | 14 | -6 | 5869 | -13 | -7
CN(c1ccc(Cl)cc1)S(=O)(=O)c1nnc(NC(=O)C(C)(C)C)s1
  -11 | 1 | 7.4 | 4 | 4121 | -14 | 3
Cc1ccc(NC(=O)c2cccnc2)cc1C
  -7 | -5 | -1.3 | -3 | 4166 | -40 | -3
Cc1c(Cc2ccc3c(c2)OCO3)sc(NC(=O)C(C)(C)C)c1C#N
  -2 | 8 | -15 | -5 | 4174 | 9 | -13
CCCCN(CC)C(=O)c1n[nH]c(=O)c2ccccc12
  9 | -7 | 4.8 | 3 | 8075 | 7 | -15
COc1cc(OC)cc(N(C(=O)C2COc3ccccc3O2)C(C(=O)NC2CCCCC2)c2ccc(O)cc2)c1 (centres undefined)
  6 | 2 | -0.5 | 2 | 2021 | -9 | 7
O=C(CSc1nc2ccccc2c(=O)n1-c1ccccc1)N1CCc2ccccc21
  8 | -1 | 3.6 | 3 | 1985 | -10 | 4
O=S(=O)(c1cccc(NC(=S)Nc2ccc(Br)cc2Cl)c1)N1CCOCC1
  0 | -4 | -3.2 | -25 | 3449 | 3 | -6
CCOc1ccccc1NC(=O)CSC1=NN2CCCC(=O)N=C2S1
  -3 | 3 | 5.1 | 4 | 5275 | -19 | -8
CN(C(=O)c1cccc(NC(=O)Cc2cccc([N+](=O)[O-])c2)c1)C1CCCCC1
  5 | 15 | 3.4 | -22 | 4035 | -3 | .
CCC(=O)N/N=C(\C)CC(=O)Nc1ccccc1-c1ccccc1
  . | . | . | . | 2482 | -20 | 0
O=C(NC1CC1)C1=CC(C2CC2)CC(OCCCCO)O1 (centres undefined)
  3&21 | 2&8 | 1.8&6.8 | 1&4 | . | . | .
COc1ccc(/C=N\NC(=O)c2ccccc2)cc1COc1ccccc1
  . | . | . | . | 5914 | -15 | 2
O=C(Nc1cccnc1)Nc1ccccc1Cl
  -2 | 4 | 5.2 | -3 | 5339 | -41 | 3
O=[N+]([O-])c1cc([N+](=O)[O-])c2nonc2c1Nc1ccc(O)cc1
  10 | -1 | 5.1 | 17 | 3619 | -15 | 3
COc1ccc(S(=O)(=O)NCC(c2ccc(C)cc2)N2CCN(C)CC2)cc1 (centres undefined)
  0 | -15 | 1.1 | 6 | 4412 | -12 | 5
CC(C)(C)c1ccc(/C=C/C(=O)N2CCN(c3ncccn3)CC2)cc1
  3 | 0 | 3.9 | 22 | 2097 | -24 | -19
Cn1c(-c2ccccc2)c[n+]2c1-c1ccccc1C2
  17 | 3 | 3.8 | 1 | 2542 | -24 | 15
O=C(CSc1nnc2ccc(-c3cccnc3)nn12)Nc1ccc(F)cc1F
  -13 | -2 | -2.1 | -6 | 3307 | . | -9
CCCNC(=O)CS(=O)(=O)Cc1nc(-c2cccc(OC)c2)oc1C
  7 | 11 | -9.9 | 2 | 4504 | 13 | 2
O=C(CNC(=O)c1cccc(Cl)c1)N/N=C/c1cccnc1
  . | . | . | . | 4364 | -15 | 3
